Source: PubChem (several laboratories)
MT1-MMP reporter = MT1-MMP gene expression reporter suppression – cell-based, luciferase reporter, luminescence (AID 618). MT1-MMP promoter luciferase reporter cells, luminescence. 0.62% of 87,000 active. calls from a first round at 10 µM; hits with a dose series show EC50 in µM;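 active means over half of the reporter light lost at 10 µM or EC50 under 50 µM; inactive means the rest and hits that failed the dose series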;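 further: actives suppress MT1-MMP promoter-driven transcription so potencies describe inhibitors; HT1080 fibrosarcoma cells; overnight exposure; toxic or luciferase-blocking compounds were not removed from the actives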
Hsc70 = Hsc70 inhibitors, probe displacement, primary screen, biochemical, fluorescence polarization (AID 568) | Hsc70 fluorescence polarization, probe displacement; higher % means a stronger effect; strong numbers were not always called active | one-dose displacement, % at 20 µM; IC50 in µM for titrated hits | 83,000 tested, under 10 active;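 active means displacement above 50% without optical interference and an IC50 on retest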;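 further: ATPase domain with a fluorescein-tagged ATP probe; 0% = vehicle and 100% = excess ADP; read after one hour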
WNV NS2B-NS3 inh = inhibitors of West Nile virus NS2B-NS3 protease | AID 577 | 0.18% of 65,000 active | P06935 | WNV NS2B-NS3 protease, fluorogenic substrate Ex360/Em465; hits give low values | z-score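 (tested at a level between 10 and 100 µM)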;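 active means z-score at -3 or under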;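 further: score is relative to mean and spread of the compound wells of a plate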
Target sequence (P06935 1371-1501 limits assumed): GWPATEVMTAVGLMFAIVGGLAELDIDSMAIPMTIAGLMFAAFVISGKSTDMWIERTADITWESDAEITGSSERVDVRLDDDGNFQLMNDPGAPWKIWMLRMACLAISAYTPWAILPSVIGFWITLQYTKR
Target sequence (P06935 1502-1679 limits assumed): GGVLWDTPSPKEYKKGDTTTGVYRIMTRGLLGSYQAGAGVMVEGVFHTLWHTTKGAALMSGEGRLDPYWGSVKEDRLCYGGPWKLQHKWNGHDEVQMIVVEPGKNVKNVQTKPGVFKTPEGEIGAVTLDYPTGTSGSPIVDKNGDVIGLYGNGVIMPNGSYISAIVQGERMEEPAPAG
An asterisk follows results filed as active; i = inactive; . = no result given. Only part of the results is shown; rates above refer to the full screens.

Values run as follows: MT1-MMP reporter	Hsc70	WNV NS2B-NS3 inh
CCN1CCN(S(=O)(=O)c2cc(OCC(=O)NC3CCCCC3)c(C)cc2Cl)CC1
 : i	2.8%	0.59
CCc1cccc(C)c1NC(=O)CSc1nnc(-c2ccco2)n1N
 : i	0.8%	-0.89
O=C(CSc1nccc(=O)[nH]1)Nc1ccc(F)c(Cl)c1
 : i	4.2%	-0.65
Cc1cccc(NC(=O)C2CCN(S(=O)(=O)c3c(C)nn(C)c3C)CC2)n1
 : i	-0.4%	-1.2
COc1ccc(N2C(=O)CSC23CCCCC3)cc1
 : i	-4.7%	0.68
Cc1cc(NC(=O)CSc2n[nH]c(CC(C)C)n2)no1
 : i	-3.2%	-0.44
O=C1c2ccccc2C(O)N1Cc1ccco1 (stereo unspecified)
 : i	-2.3%	0.18
CC(=O)c1sc2nc(-c3cccs3)cc(C(F)(F)F)c2c1N
 : i	-83%	1
O=C(O)c1ccc(S(=O)(=O)c2ccc3c(c2)C(=O)N(Cc2ccco2)C3=O)cc1
 : i	0.9%	2.3
O=C(CSc1nnnn1-c1ccc(Cl)cc1)N1CCc2ccccc2C1
 : i	0.9%	0.26
CCOC(=O)c1c(C2CC2)csc1NC(C)=O
 : i	4.7%	-1.8
CC(C)CNC(=O)c1ccccc1NC(=O)c1ccccc1N(C)S(C)(=O)=O
 : i	-0.8%	.
COc1ccc(NC(=O)CN(c2cc(C)cc(C)c2)S(=O)(=O)c2c(C)noc2C)cc1
 : i	-0.1%	-0.74
CC(C)Cn1c(NCCO)nc2ccccc21
 : i	-6.2%	.
CC(C)Cc1nc2oc3c(N4CCN(CCO)CC4)ncnc3c2c2c1CCCC2
 : i	3.1%	-0.32
Oc1ccccc1-c1cc(C(F)(F)F)[nH]n1
 : i	5.2%	-1.4
CCc1cc2cc(C)ccc2nc1SCC(=O)N1CCN(C(=O)c2ccco2)CC1
 : i	1.3%	-1.1
CC1(C)Cc2c(sc3nc4n(c(=O)c23)CCC4)CO1
 : i	2.2%	-0.76
Cc1ccc(N2C(=O)[C@@H]3[C@H](C2=O)C2CCCN2[C@@H]3C(=O)c2ccccc2)cc1 (stereo partly specified)
 : i	6.9%	0.51
CN=CC1=C(O)CC(C)(C)CC1=O
 : i	-3.9%	1.6
COc1ccccc1C1C2=C(N=C3SCC(=O)N31)c1ccccc1CC2 (stereo unspecified)
 : i	0.9%	-0.68
O=C1CC(c2ccsc2)c2cc3c(cc2N1)OCCO3 (stereo unspecified)
 : i	1.1%	1.1
CC1C(=O)CCCCCCCCCC2C1(N1CCOCC1)CS2(=O)=O (stereo unspecified)
 : i	-0.8%	.
COc1cccc(OCCOCCNCCO)c1
 : i	-7.8%	-0.9
Cc1ccc2cc(C#N)c(SCC(=O)NCC3CCCO3)nc2c1 (stereo unspecified)
 : i	2.0%	-0.33
Cc1cnc(C(=O)OCC(=O)Nc2cc(Cl)cc(Cl)c2)cn1
 : i	-0.5%	1.6
CCN(CC)CCCNC(=O)c1nn(-c2ccc(OC)cc2OC)c(=O)c2ccccc12
 : i	-9.0%	0.36
CC(C)(C)n1ncc2c(=O)n(CC(=O)NCCc3ccccc3)cnc21
 : i	-2.1%	0.82
CCC1CCCCN1C(=O)Cn1c(=O)n(CCC(=O)NCc2ccco2)c(=O)c2sccc21 (stereo unspecified)
 : i	-7.7%	0.21
O=C(Cc1ccccc1)N1CCCC(c2nc(-c3ccc(S(=O)(=O)N4CCCC4)cc3)no2)C1 (stereo unspecified)
 : i	3.6%	.
CCN(CC(=O)NC1CCS(=O)(=O)C1)c1ccc(S(C)(=O)=O)cc1[N+](=O)[O-] (stereo unspecified)
 : i	-3.1%	.
CN1/C(=C\C(=O)COC(=O)CN2C(=O)C3CC=CCC3C2=O)C(C)(C)c2ccccc21 (stereo unspecified)
 : i	4.1%	0.05
CCc1ccc(NC(=O)CNS(=O)(=O)c2c(C)noc2C)cc1
 : i	-0.3%	0.07
CC1=CCC2C(=O)N(C(C)c3ccccc3)C(=O)C2C1 (stereo unspecified)
 : i	5.2%	.
CCOc1ccc(NC(=O)c2ccccc2NS(C)(=O)=O)cc1
 : i	4.2%	.
COC(=O)c1c(NC(=O)CN2CCC(C)CC2)c2c(C)cccc2n1C
 : i	-4.0%	1.3
Cc1sc2nc3ccc(N4CCCC4)nn3c(=O)c2c1C
 : i	5.4%	-0.8
CCC(C)(C)NC(=O)Cc1ccc(C)cc1
 : i	0.1%	.
CC(C)(C#N)N([O-])C=C[N+](=O)C(C)(C)C#N
 : i	-3.1%	0.62
Cc1ccc(C(=O)CSc2nc(C)cc(SCc3nnc(-c4ccccc4)o3)n2)cc1
 : i	-6.2%	-0.07
CCC(C)NCc1ccc(C(=O)OC)o1 (stereo unspecified)
 : i	-5.1%	.
CCC(=O)c1ccc(N2CCN(C(=O)Cc3ccccc3)CC2)c(F)c1
 : i	-1.7%	2
Cc1ccc(OC(=O)c2cccc(C(=O)Oc3ccc(C)cc3)n2)cc1
 : i	6.9%	.
CC(Sc1nc(-c2ccccc2)nc2c1COC(C)(C)C2)C(=O)N1CCOCC1 (stereo unspecified)
 : i	-3.1%	.
CCOC(=O)CSc1nc2ccccc2n2cnnc12
 : i	-1.6%	-0.12
O=C(COc1ccccc1)N1CCN(S(=O)(=O)c2cccs2)CC1
 : i	-0.3%	1.1
O=C(C1CC1c1ccccc1)N1CCOCC1 (stereo unspecified)
 : i	-1.9%	0.47
COc1ccccc1CNC(=O)c1ccc(NS(=O)(=O)c2c(C)noc2C)cc1
 : i	-1.0%	0.73
CCOc1ccc(CC(=O)OCN2C(=O)c3ccccc3C2=O)cc1
 : i	-0.1%	.
CCN(Cc1ccccc1)S(=O)(=O)c1ccc(C(=O)Nc2nnc(C3CC3)o2)cc1
 : i	1.9%	-0.23
O=C(Cn1nc(-c2ccc(Cl)cc2)ccc1=O)NCC1CCCO1 (stereo unspecified)
 : i	2.0%	0.45
Cc1ccc(-n2c(SCC(=O)N3CCCC3)nc3c(c2=O)SCC3)cc1
 : i	0.9%	0.08
CCSc1cnc(-c2ccccc2)n1CC
 : i	1.6%	-0.06
O=S(=O)(c1cccc(-c2cn3cccnc3n2)c1)N1CCOCC1
 : i	-4.8%	-0.16
Cc1cc(C(=O)NCCCN2CCCC2=O)cs1
 : i	3.0%	-0.31
O=C(O)c1cc(-c2ccco2)[nH]n1
 : i	-0.2%	0.72
COc1ccc(NC(=O)C2CCCN(S(=O)(=O)c3cccnc3)C2)c(OC)c1 (stereo unspecified)
 : i	1.3%	-0.58
CCC(c1nnnn1C(C)(C)CC)N(CCCN1CCOCC1)Cc1cc2cccc(C)c2[nH]c1=O (stereo unspecified)
 : i	3.2%	.
CS(=O)(=O)N(CC(=O)N1CCN(c2ccccc2)CC1)Cc1ccc(Cl)cc1
 : i	3.1%	.
CCNc1nc(C)cc(COC)c1C#N
 : i	-2.1%	0.07

3 entries from above, set out differently:
| SMILES | MT1-MMP reporter | Hsc70 | WNV NS2B-NS3 inh |
| --- | --- | --- | --- |
| O=C(COc1ccccc1)N1CCN(S(=O)(=O)c2cccs2)CC1 | i | -0.3% | 1.1 |
| CCNc1nc(C)cc(COC)c1C#N | i | -2.1% | 0.07 |
| CCOc1ccc(NC(=O)c2ccccc2NS(C)(=O)=O)cc1 | i | 4.2% | . |

A few values from above:
`CCC(C)NCc1ccc(C(=O)OC)o1` (stereo unspecified) in Hsc70 has -5.1%
`Cc1cc(C(=O)NCCCN2CCCC2=O)cs1` in WNV NS2B-NS3 inh has -0.31

Single records, from the list above. Screens in order: MT1-MMP reporter | Hsc70 | WNV NS2B-NS3 inh
Shown for O=C(COc1ccccc1)N1CCN(S(=O)(=O)c2cccs2)CC1 : i | -0.3% | 1.1
Shown for O=S(=O)(c1cccc(-c2cn3cccnc3n2)c1)N1CCOCC1 : i | -4.8% | -0.16
Shown for COc1ccccc1CNC(=O)c1ccc(NS(=O)(=O)c2c(C)noc2C)cc1 : i | -1.0% | 0.73
Shown for CCC(c1nnnn1C(C)(C)CC)N(CCCN1CCOCC1)Cc1cc2cccc(C)c2[nH]c1=O (stereo unspecified) : i | 3.2% | .
Shown for CCOc1ccc(NC(=O)c2ccccc2NS(C)(=O)=O)cc1 : i | 4.2% | .

Next results follow:
Values run as follows: MT1-MMP reporter	Hsc70	WNV NS2B-NS3 inh
CCC1(C)Cc2c(sc3c2c(=O)n(C)c2nnc(SCc4ccc5c(c4)OCO5)n32)CO1 (stereo unspecified)
 : i	4.1%	-0.24
Cc1ccc2cc(CN(Cc3ccco3)C(=O)C3CCCCC3)c(=O)[nH]c2c1C
 : i	10%	-0.89
CCN1C(=O)CC(N2CCC(Nc3ccc(F)cc3)CC2)C1=O (stereo unspecified)
 : i	1.3%	-0.32
OC(CN1CCN(c2cccc(C(F)(F)F)c2)CC1)c1c[nH]c2ccccc12 (stereo unspecified)
 : i	-5.2%	-1.6
COc1ccccc1-c1cc(C(F)(F)F)nc(N2CCCC2)n1
 : i	2.3%	-0.52
COc1ccccc1-n1c(CNc2c(C)cccc2C)nnc1SCC(=O)N1CCOCC1
 : i	-4.2%	-0.44
COc1ccccc1-n1cnnc1SCC(=O)N1CC(=O)Nc2ccccc21
 : i	3.6%	.
Cn1c(C(=O)OCC(=O)NCCc2ccccc2)cc2sccc21
 : i	0.0%	-0.33
Nc1ncnc2nc(Sc3ccc(Cl)cc3)[nH]c12
 : i	-2.0%	0.37
COc1ccc(C(=O)N(CCCO)Cc2cc3c(C)ccc(C)c3[nH]c2=O)cc1OC
 : i	7.9%	0.54
COc1ccc(OC)c(CCNC(=O)C2CCN(c3nnc(-n4cccc4)s3)CC2)c1
 : i	3.0%	-0.04
Cc1occc1C(=O)NCc1cccc(CNC(=O)c2ccoc2C)c1
 : i	0.1%	0.09
O=c1c2ccccc2nc(-c2cccc(Cl)c2)n1O
 : i	-5.6%	-0.0076
CCOC(=O)C1CCN(C(=O)/C=C/c2ccc(OC)cc2)CC1
 : i	2.1%	.
CCOC(=O)C(Cc1cc(C(C)=O)ccc1OCC)C(=O)OCC
 : i	3.0%	-0.49
COc1ccc(CCC(=O)Nc2nc3c(s2)CN(C)CC3)cc1OC
 : i	-3.4%	-0.06
COc1ccc(CCNC(=O)CCS(=O)(=O)c2ccc3c(c2)CCN3C(C)=O)cc1OC
 : i	-8.0%	0.09
O=C(Nc1nc(-c2ccccn2)cs1)c1ccc(S(=O)(=O)N2CCCCC2)cc1
 : i	-1.9%	0.09
O=C(NCCN1CCOCC1)c1csc2c1CCCCC2
 : i	11%	0.34
CCc1cc(C=NC2CCCCC2)c(O)s1
 : i	-1.1%	1.6
CN1C(=O)CC(Sc2ncccc2C(=O)O)C1=O (stereo unspecified)
 : i	1.2%	.
CCOC(=O)c1nnn(-c2nonc2N)c1COc1ccccc1
 : i	2.4%	2.1
COc1cc(CC(=O)NCc2ccc3c(c2)OCO3)cc(OC)c1OC
 : i	-1.2%	-0.2
Cc1nc(C)c(NC(=O)N2CCc3ccccc32)cc1NC(=O)N1CCc2ccccc21
 : i	-1.5%	-0.89
CN1CCN(c2nc(-c3ccccc3)nc3c2oc2ccccc23)CC1
 : i	-1.2%	0.43
CNc1oc(Cc2cccc3ccccc23)nc1C#N
 : i	-2.5%	0.25
O=C(Nc1nc(-c2ccc(S(=O)(=O)N3CCOCC3)cc2)cs1)c1ccccc1
 : i	-3.1%	.
O=C(Cc1ccc(Cl)cc1)N1CCN(C(=O)c2ccco2)CC1
 : i	-1.2%	.
COC(=O)C1C(O)=C(C(C)=N)C(=O)CC1(C)C (stereo unspecified)
 : i	-4.3%	1.9
CSCCC(NC(=O)OCc1ccccc1)C(=O)O (stereo unspecified)
 : i	3.5%	.
CCCCN(C)Cc1c(C)[nH]c2c(Cl)cccc2c1=O
 : i	-0.2%	-0.68
O=C(/C=C\Nc1cccc(F)c1)c1ccc2c(c1)OCO2
 : i	1.4%	1.8
N=c1c2c(n(Cc3ccc(F)cc3)c3c1CCC3)CCC2
 : i	3.2%	-0.84
CC(C)N1C(=O)CCC1C(=O)NC1CCCC1 (stereo unspecified)
 : i	6.6%	0.3
COC(=O)C1=C(C)N(CCc2ccc(OC)c(OC)c2)C(=O)C1
 : i	-3.5%	.
CCOC(=O)c1oc2cccc(OCC(O)CNC(C)C)c2c1C (stereo unspecified)
 : i	-4.6%	-0.24
COc1ccccc1N1C(=O)C2C3C=CC(C3)C2(C)C1=O (stereo unspecified)
 : i	7.8%	-0.78
CCCc1cc(N2CCCC(C(=O)Nc3cc(Cl)ccc3OC)C2)n2ncnc2n1 (stereo unspecified)
 : i	2.3%	0.28
CCOc1ccc(C(=O)NC2CCN(C(=O)Nc3ccccc3OC)CC2)cc1
 : i	5.5%	.
Cc1ccc2occ(C(=O)c3ccco3)c(=O)c2c1
 : i	-6.7%	-0.61
CC(C)C1N(C(=O)CN2CCCC2)CCN1S(=O)(=O)c1ccccc1 (stereo unspecified)
 : i	8.2%	1.4
O=C(CN1CCCCC1)Nc1nnc(-c2ccccc2)s1
 : i	4.7%	-0.24
